From PubChem
PGK inhibitor: blocks T. brucei phosphoglycerate kinase | Potency, µM (top dose mostly 57.5 µM), for inactives: top-dose activity change, negative = inhibition, usual class: inhibitors | PGK/GAPDH coupled, Kinase-Glo luminescence, 60 min | 380,000 tested, 0.043% active | P07378; further: on the % scale 0 is the no-effect control and ±100 the full control effect; nearly all actives have a fitted effect of over 60% in size
Target sequence (P07378 whole entry, looked up): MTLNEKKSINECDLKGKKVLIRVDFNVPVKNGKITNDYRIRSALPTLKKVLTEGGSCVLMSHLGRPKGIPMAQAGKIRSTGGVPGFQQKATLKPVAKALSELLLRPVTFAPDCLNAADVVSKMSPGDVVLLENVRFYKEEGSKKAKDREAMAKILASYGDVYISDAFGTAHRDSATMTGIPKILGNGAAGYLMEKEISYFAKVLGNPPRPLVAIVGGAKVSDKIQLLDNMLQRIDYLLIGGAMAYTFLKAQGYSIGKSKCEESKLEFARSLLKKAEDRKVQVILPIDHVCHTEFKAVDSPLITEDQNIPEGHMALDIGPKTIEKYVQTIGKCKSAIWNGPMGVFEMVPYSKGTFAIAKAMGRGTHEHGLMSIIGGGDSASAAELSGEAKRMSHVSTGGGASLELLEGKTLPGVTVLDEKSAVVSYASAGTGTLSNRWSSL
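Recombinant glycosomal PGK reaction used 1,3-bisphosphoglycerate generated in-well by GAPDH (100nM final) in 100mM TEA pH 7.6, 5mM MgCl2, 0.01% Tween-20. After 60 minutes at room temperature, ATP was read by Kinase-Glo Plus luminescence end-point.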
POLK inh: blocks human DNA polymerase kappa activity; Q9UBT6; purified Pol kappa, fluorescent DNA synthesis assay, 10 min; Potency, µM (top dose mostly 107 µM), without a hit: top-dose activity, negative = inhibition, actives largely listed as inhibitors; 400,000 tested, 0.53% active; further: on the % scale 0 is the no-effect control and ±100 the full control effect
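First, compounds were pin-transferred onto 10 nM Pol kappa. After 15 min at room temperature, substrate was added to 50 nM final. Fluorescence was then measured kinetically at 0 and 10 min.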
POLI inh: DNA polymerase iota (human) inhibition; Q9UNA4; Pol iota fluorescent replication assay, 10 min; Potency, µM (series often up to 115 µM), without a hit: top-dose activity, negative = inhibition, usual class: inhibitors; 390,000 tested, 1% active; AID 588590
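Pol iota at 10 nM preincubated 15 min with compounds at room temperature; reaction started with fluorescent substrate, 50 nM final. Fluorescence read kinetically at 0 and 10 min; buffer-only wells as negative control.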
Apoferritin bind: binds horse apoferritin like a general anesthetic | 350,000 tested, 0.074% active | AID 485281 | apoferritin/1-aminoanthracene competitive binding, fluorescence | Potency, µM (titrated, usually from 77.5 µM), inactives show at the top dose activity change, negative = displacement, usual class: inhibitors | P02791; further: on the % scale 0 is the no-effect control and ±100 the full control effect; nearly all actives have a fitted effect of over 20% in size
Target sequence (P02791 2-175 limits assumed): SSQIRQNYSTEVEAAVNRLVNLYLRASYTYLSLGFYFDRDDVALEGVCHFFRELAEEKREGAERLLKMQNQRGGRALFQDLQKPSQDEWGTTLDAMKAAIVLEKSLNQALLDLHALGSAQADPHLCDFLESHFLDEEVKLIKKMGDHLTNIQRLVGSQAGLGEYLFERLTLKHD
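In PBS, apoferritin at 10 uM is loaded with 1-AMA from a 50% saturated solution. After 10 min of compound exposure at ambient temperature, reduced 535 nm fluorescence indicates probe displacement.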
BLM inh: inhibitors of human Bloom syndrome helicase BLM. P54132. recombinant BLM DNA unwinding, fluorescence dequenching. Potency, µM (highest dose often 56.1 µM), without a hit: at the top dose activity change, negative = inhibition, hits mostly inhibitors. 350,000 tested, 0.2% active. AID 2528;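 further: plate controls were vehicle for no effect and no enzyme for full effect; nearly all actives have a fitted effect of over 35% in size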
* = called active by the depositor; i = inactive; ? = inconclusive; . = not tested or not shown; [ ] = dose if it differs, or a comment. The call rests on the fitted dose curve; in most records, active means well fitted curve in the direction sought with a large enough effect; inconclusive means small, poorly fitted or top-dose-only effect, or another doubt; inactive means no such curve, though single readings can be large; an effect the other way counts as inactive or inconclusive. Potency means the concentration at half of the fitted maximal effect. This is a subset, so the mix of outcomes need not match the whole.

SMILES	PGK inhibitor	POLK inh	POLI inh	Apoferritin bind	BLM inh
Cn1c(SCc2cccc(F)c2)nnc1-c1ccncc1	-2%	-12%	-3%	-7%	-11%
Cc1cc2nc3s/c(=C/c4ccc(-c5ccccc5C(=O)O)o4)c(=O)n3c2cc1C	i	0%	-7%	-7%	-6%
O=C(O)c1cccc(S(=O)(=O)N2CCSCC2)c1	-6%	4%	-8%	-5%	-7%
O=C(COC(=O)c1ccccc1)Nc1cccc(S(=O)(=O)NC2=NCCCCC2)c1	-9%	-2%	8%	-14%	4%
CC(=O)N/C(=C\c1ccccc1)C(=O)OC(C)C(=O)NCc1ccccc1 (stereo not drawn)	i	-10%	17%	.	.
CCOc1ccc(/C=C/c2nc(C#N)c(N3CCN(c4ccccc4)CC3)o2)cc1	1%	1%	11%	48%[activator]	2%
CCOC(=O)CNC(=O)CSc1nnc(COc2ccc(Cl)cc2)n1CC	-3%	-10%	-11%	-10%	-2%
N#CC(c1ccncc1)(c1ncc(C(F)(F)F)cc1Cl)N1CCOCC1 (stereo not drawn)	-7%	-10%	98%[activator]	?	-4%
COC(=O)C1=NN(c2ccc(Cl)cc2)C2C(=O)N(c3ccccc3OC)C(=O)C12 (stereo not drawn)	6%	-12%	11%	189%[activator]	0%
CCN(CC)CC(=O)N1c2ccccc2Oc2c(c(=O)n(C)c(=O)n2C)C1c1cccc([N+](=O)[O-])c1 (stereo not drawn)	-2%	-19%	23%	0%	-5%

One compound at a time, as listed above:
O=C(COC(=O)c1ccccc1)Nc1cccc(S(=O)(=O)NC2=NCCCCC2)c1 is listed as PGK inhibitor: -9%; POLK inh: -2%; POLI inh: 8%; Apoferritin bind: -14%; BLM inh: 4%
CCOc1ccc(/C=C/c2nc(C#N)c(N3CCN(c4ccccc4)CC3)o2)cc1 is listed as PGK inhibitor: 1%; POLK inh: 1%; POLI inh: 11%; Apoferritin bind: 48%[activator]; BLM inh: 2%

More records follow:
SMILES	PGK inhibitor	POLK inh	POLI inh	Apoferritin bind	BLM inh
CCc1ccc(C(=O)OCC(=O)Nc2cccc(S(=O)(=O)NC3=NCCCCC3)c2)cc1	-11%	-8%	11%	?	-9%
O=C(O)c1ccc2nc3c(nc2c1)-c1ccccc1C3=O	-22%	-18%	111%[activator]	-4%	-7%
Cc1nn(-c2ccccc2)c2[nH]c(=O)c(CNCC3CCCO3)cc12 (stereo not drawn)	-9%	-32%	-3%	-15%	-1%
COc1ccc(C(C#N)Nc2ccccc2C)cc1 (stereo not drawn)	-3%	-11%	10%	-3%	-6%
Cc1cc(N/N=C\c2ccc(Br)cc2)nc(-n2nc(C)cc2C)n1	0%	-13%	?	-11%	0%
COc1ccccc1NC(=O)C(C)OC(=O)/C(=C/c1ccccc1)NC(C)=O (stereo not drawn)	-4%	6%	-9%	.	.
CCn1c(COc2ccc(C)cc2)nnc1SCC(=O)Nc1ccc(S(N)(=O)=O)cc1	-9%	-2%	-14%	-20%	1%
CCOC(=O)C1CCCN(C(=S)NC(=O)/C=C/c2ccc(F)cc2)C1 (stereo not drawn)	-9%	-6%	-26%	-20%	-6%
Cc1ncccc1C(=O)N1CCCC(CNC(=O)C2(c3ccc(Cl)cc3)CC2)C1 (stereo not drawn)	-2%	5%	-1%	-4%	-2%
COC(=O)C1=NN(c2ccc(OC)cc2)C2C(=O)N(c3ccccc3OC)C(=O)C12 (stereo not drawn)	-2%	-6%	177%[activator]	-7%	-1%
CCc1ccccc1OCC(=O)Nc1cccc(S(=O)(=O)NC2=NCCCCC2)c1	-6%	-5%	-12%	.	.
CCOc1ccccc1OCC(=O)Nc1cccc(S(=O)(=O)NC2=NCCCCC2)c1	-10%	6%	4%	.	.
CCn1c(COc2ccc(Cl)cc2)nnc1SCC(=O)Nc1ccc2c(c1)OCO2	i	-5%	2%	?	-2%
COc1ccccc1N1C(=O)C2C(C(=O)c3ccccc3)=NN(c3ccc(C)cc3)C2C1=O (stereo not drawn)	-3%	-13%	56%[activator]	-5%	-11%
C=CCn1c(CNC(=O)c2ccccc2F)nnc1SCc1nc2ccccc2c(=O)[nH]1	i	1%	111%[activator]	2%	-1%
C/C(=N\NC(=O)c1ccc(NS(=O)(=O)c2cccs2)cc1)c1ccncc1	-5%	-16%	107%[activator]	-17%	-3%
C/C(=N\NC(=O)c1ccc(NS(=O)(=O)c2cccs2)cc1)c1ccc(Cl)cc1	-4%	-4%	2%	6%	-2%
COc1cccc2cc(C(=O)CS(=O)(=O)c3ccc(C(C)(C)C)cc3)c(=O)oc12	-3%	-10%	41%	?	-1%
N#CC(c1ccccn1)(c1ncc(C(F)(F)F)cc1Cl)N1CCOCC1 (stereo not drawn)	-1%	-4%	-3%[58.9 µM]	-9%	-2%
Oc1ccc(N2CCN(C(c3ccncc3)c3nnnn3C3CCCC3)CC2)cc1 (stereo not drawn)	.	-10%	5%	5%	-2%

For convenience, part of the list above:
SMILES	PGK inhibitor	POLK inh	POLI inh	Apoferritin bind	BLM inh
CCc1ccc(C(=O)OCC(=O)Nc2cccc(S(=O)(=O)NC3=NCCCCC3)c2)cc1	-11%	-8%	11%	?	-9%
O=C(O)c1ccc2nc3c(nc2c1)-c1ccccc1C3=O	-22%	-18%	111%[activator]	-4%	-7%
Cc1nn(-c2ccccc2)c2[nH]c(=O)c(CNCC3CCCO3)cc12 (stereo not drawn)	-9%	-32%	-3%	-15%	-1%
COc1ccc(C(C#N)Nc2ccccc2C)cc1 (stereo not drawn)	-3%	-11%	10%	-3%	-6%
Cc1cc(N/N=C\c2ccc(Br)cc2)nc(-n2nc(C)cc2C)n1	0%	-13%	?	-11%	0%
COc1ccccc1NC(=O)C(C)OC(=O)/C(=C/c1ccccc1)NC(C)=O (stereo not drawn)	-4%	6%	-9%	.	.
CCn1c(COc2ccc(C)cc2)nnc1SCC(=O)Nc1ccc(S(N)(=O)=O)cc1	-9%	-2%	-14%	-20%	1%
CCOC(=O)C1CCCN(C(=S)NC(=O)/C=C/c2ccc(F)cc2)C1 (stereo not drawn)	-9%	-6%	-26%	-20%	-6%
Cc1ncccc1C(=O)N1CCCC(CNC(=O)C2(c3ccc(Cl)cc3)CC2)C1 (stereo not drawn)	-2%	5%	-1%	-4%	-2%
COC(=O)C1=NN(c2ccc(OC)cc2)C2C(=O)N(c3ccccc3OC)C(=O)C12 (stereo not drawn)	-2%	-6%	177%[activator]	-7%	-1%
CCc1ccccc1OCC(=O)Nc1cccc(S(=O)(=O)NC2=NCCCCC2)c1	-6%	-5%	-12%	.	.
CCOc1ccccc1OCC(=O)Nc1cccc(S(=O)(=O)NC2=NCCCCC2)c1	-10%	6%	4%	.	.
CCn1c(COc2ccc(Cl)cc2)nnc1SCC(=O)Nc1ccc2c(c1)OCO2	i	-5%	2%	?	-2%
COc1ccccc1N1C(=O)C2C(C(=O)c3ccccc3)=NN(c3ccc(C)cc3)C2C1=O (stereo not drawn)	-3%	-13%	56%[activator]	-5%	-11%
C=CCn1c(CNC(=O)c2ccccc2F)nnc1SCc1nc2ccccc2c(=O)[nH]1	i	1%	111%[activator]	2%	-1%
C/C(=N\NC(=O)c1ccc(NS(=O)(=O)c2cccs2)cc1)c1ccncc1	-5%	-16%	107%[activator]	-17%	-3%
C/C(=N\NC(=O)c1ccc(NS(=O)(=O)c2cccs2)cc1)c1ccc(Cl)cc1	-4%	-4%	2%	6%	-2%
COc1cccc2cc(C(=O)CS(=O)(=O)c3ccc(C(C)(C)C)cc3)c(=O)oc12	-3%	-10%	41%	?	-1%

Following part
SMILES	PGK inhibitor	POLK inh	POLI inh	Apoferritin bind	BLM inh
CN(CC(=O)Nc1cccc(F)c1)C(=O)c1cccnc1Sc1ccc(Cl)cc1	-4%	-9%	1%	.	.
CN(CC(=O)Nc1cccc(F)c1)C(=O)c1cn2ccccc2n1	-10%	-16%	29%	.	.
COc1ccc(C2/C(=C(/O)c3ccc(F)cc3)C(=O)C(=O)N2CCCN2CCOCC2)cc1OC (stereo not drawn)	5%	-1%	21%	-11%	-3%
CSc1ncccc1C(=O)N(C)CC(=O)Nc1cccc(F)c1	-1%	-2%	-6%	0%	1%
CCCCCC(=O)Nc1cccc(S(=O)(=O)NC2=NCCC2)c1	1%	-3%	14%	.	.
CN1CCN(c2oc(/C=C/c3ccccc3)nc2C#N)CC1	-7%	-3%	-8%[58.9 µM]	87%[activator]	-2%
CCc1ccc(NCc2cc3c(C)nn(-c4ccccc4)c3[nH]c2=O)cc1	-1%	-14%	-1%	-22%	-9%
CC1(C)Cc2ccccc2C(/C(=N/O)C(N)=O)=N1	.	5%	?	-8%	0%
COc1cc(S(=O)(=O)NCc2ccc3c(c2)OCO3)c(OC)cc1C	-3%	1%	100%[activator]	-5%	-1%
COCCn1nnnc1C(c1cc2cc(C)ccc2[nH]c1=O)N1CCc2ccccc21 (stereo not drawn)	-3%	1%	-4%	?	-11%
Fc1cccc(Cc2noc(CN3CCSCC3)n2)c1	i	-13%	47%[activator]	-5%	-6%
C/C(=N\NC(=O)c1ccc(NS(=O)(=O)c2cccs2)cc1)c1cccs1	-9%	-10%	153%[activator]	-20%	2%
